Cruzain noTriton: blocks cruzain activity in detergent-free assay; P25779; purified cruzain, Z-FR-AMC fluorescence, no detergent; Potency, µM, inactives show max response, negative = inhibition, hits mostly inhibitors; actives 2.3% (n = 200,000);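 also: plate controls were enzyme without inhibitor for no effect and buffer without enzyme for full effect; nearly all actives have a fitted effect of over 40% in size; top concentration of the series not given in the record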
Target sequence (P25779 123-467 limits assumed): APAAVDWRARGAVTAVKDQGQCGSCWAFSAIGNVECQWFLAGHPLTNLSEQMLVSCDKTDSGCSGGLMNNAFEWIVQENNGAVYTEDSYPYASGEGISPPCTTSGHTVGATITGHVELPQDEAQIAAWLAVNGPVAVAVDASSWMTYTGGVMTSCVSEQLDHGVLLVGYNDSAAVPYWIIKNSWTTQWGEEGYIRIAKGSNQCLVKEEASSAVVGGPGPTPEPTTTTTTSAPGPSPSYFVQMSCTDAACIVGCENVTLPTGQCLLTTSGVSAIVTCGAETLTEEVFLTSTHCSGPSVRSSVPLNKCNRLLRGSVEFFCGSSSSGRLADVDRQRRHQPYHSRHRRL
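Purified cruzain at 1.5 nM, pre-incubated 15 min with compound at room temperature in 100 mM sodium acetate pH 5.5, 5 mM DTT, 0.00005% Triton X-100. Reaction started with 2 uM Z-FR-AMC; AMC fluorescence increase over 60 s gives rate.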
Cruzain Triton: blocks cruzain activity in presence of Triton detergent; actives 0.43% (n = 200,000); purified cruzain, Z-FR-AMC fluorescence, 0.01% Triton; AID 1478; P25779; Potency, µM, for inactives: max response, negative = inhibition, most hits filed as inhibitors;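 also: plate controls were neutral wells for no effect and buffer without enzyme for full effect; nearly all actives have a fitted effect of over 40% in size; top concentration of the series not given in the record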
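Steps: dispense cruzain (1.5 nM final) in acetate buffer pH 5.5 with DTT and 0.01% Triton X-100; pin-transfer compounds; incubate 15 min RT; add Z-FR-AMC (2 uM final); read fluorescence every 30 s, using the 60 s intensity change.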
NS1 function inh: inhibitors of influenza NS1 protein function | S. cerevisiae slowed by influenza A NS1, growth recovery by OD600 | Potency, µM (titrated, usually from 46.1 µM), for inactives: top-dose activity, positive = more growth | actives 0.4% (n = 270,000) | AID 2326; active means well fitted rising curve with a large enough effect; inconclusive means small, poorly fitted or top-dose-only effect; inactive means no such curve, though single readings can be large or run the other way; also: nearly all actives have a fitted effect of over 50% in size
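Compounds were scored for reversing the slow growth caused by influenza A NS1 in S. cerevisiae, measured by optical density at 600 nm. Assay medium contained 2% galactose at pH 6.0; NS1-free yeast of the same strain were the positive control.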
MARV entry inh: inhibitors of Marburg virus binding or cell entry. Marburg virus pseudotyped entry inhibition, cell reporter; control for the full effect not named in the record; about a third of the inactives were read at about 46 µM. actives 1.8% (n = 300,000). Potency, µM (doses to about 37.8 µM), for inactives: top-dose activity change, negative = inhibition, most hits filed as inhibitors; active = well fitted inhibition curve with a large enough effect; inconclusive = small, poorly fitted or top-dose-only effect, or effect the other way; inactive = flat fitted curve, though single readings scatter; tested in HEK293 cells; about a fifth of its hits are not listed in these tables; also: % is scaled to controls: 0 for no effect and ±100 for the full control effect; luciferase read-out
LASV entry inh: Lassa virus entry inhibition. Lassa virus pseudotype entry inhibition, cell reporter; control for the full effect not named in the record. Potency, µM (highest dose often 37.9 µM), for inactives: at the highest dose activity change, negative = inhibition, usual class: inhibitors. AID 540256. actives 1.2% (n = 300,000); active means well fitted inhibition curve with a large enough effect; inconclusive means small, poorly fitted or top-dose-only effect, or effect the other way; inactive means flat fitted curve, though single readings scatter; tested in HEK293 cells; also: % is scaled to controls: 0 for no effect and ±100 for the full control effect; nearly all actives have a fitted effect of over 50% in size; luciferase read-out
StopGo reporter: lowers the luciferase signal of an FMDV 2A StopGo reporter; AID 1159524; actives 1.2% (n = 410,000); Potency, µM (doses to about 57.9 µM), for the others: top-dose signal change, negative = less light; human cells with a luciferase reporter of 2A StopGo recoding; control for the full effect not named in the record; active = well fitted falling curve with a large enough effect; inconclusive = small, poorly fitted or top-dose-only effect; inactive = no such curve, though single readings can be large or run the other way; tested in HEK293T cells; also: % is scaled to controls: 0 for no effect and ±100 for the full control effect; nearly all actives have a fitted effect of over 45% in size; luciferase light after 4 h
SARS PLpro yeast: SARS-CoV PLP inhibition in yeast; S. cerevisiae expressing SARS-CoV PLpro, growth rescue; control for the full effect not named in the record; Potency, µM (highest dose often 32.9 µM), without a hit: at the top dose activity, positive = growth rescue; actives 0.19% (n = 330,000); AID 485353; active means well fitted rising curve with a large enough effect; inconclusive means small, poorly fitted or top-dose-only effect; inactive means no such curve, though single readings can be large or run the other way; also: 0% is about no effect; nearly all actives have a fitted effect of over 55% in size; growth read by luminescence after 48 h
RE007 growth inh: less growth of the S. pombe RE007 Vpr strain | S. pombe RE007 Vpr strain, BacTiter-Glo ATP luminescence, 24 h; control for the full effect not named in the record | Potency, µM (doses to about 92.2 µM), without a hit: at the highest dose activity change, negative = less growth | actives 0.21% (n = 360,000) | AID 651644; active = well fitted falling curve with a large enough effect; inconclusive = small, poorly fitted or top-dose-only effect; inactive = no such curve, though single readings can be large or run the other way;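 also: % is scaled to controls: 0 for no effect and ±100 for the full control effect; nearly all actives have a fitted effect of over 50% in size; the assay follows cell death caused by Vpr and the record does not say whether a fall means rescue or toxicity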
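Fission yeast RE007 carrying one integrated HIV-1 vpr copy, seeded at OD 0.01 in PMG+AL medium with 23 nL pinned compound. Grown 24 h at 30 degrees; viability read by BacTiter-Glo luminescence after 5 min.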
Starred values were filed as active, the others as inactive; u = inconclusive; x = no result given; & = joins results of further samples; [ ] = another dose, or the depositor's remark. Unless noted, calls follow the shape of the dose curve; as a rule, active = well fitted curve in the direction sought with a large enough effect; inconclusive = small, poorly fitted or top-dose-only effect, or another doubt; inactive = no such curve, though single readings can be large; an effect the other way counts as inactive or inconclusive. Potency is read from the fitted curve at half-maximal effect.

Fields – Cruzain noTriton, Cruzain Triton, NS1 function inh, MARV entry inh, LASV entry inh, StopGo reporter, SARS PLpro yeast, RE007 growth inh
1	CC1(C)CC(=O)c2sc(N)nc2C1
→ -12%, 5.7%, -12%, 2%, -2%, 0%, -1%, 5%
2	COc1ccccc1-c1csc(NC(=O)c2cc(-c3cccs3)nc3ccccc23)n1
→ 4µM*, -3.0%, u, 1%, 11%, -21%, -5%, -8%
3	COc1ccc(S(=O)(=O)NCCOc2ccccc2)cc1F
→ x, x, -1%, 16%[46.1 µM], -12%[46.1 µM], 1%, -3%, -5%
4	COc1ccc(C2OC[C@H]3O[C@H](O)[C@H](NC(C)=O)[C@@H](O)[C@@H]3O2)cc1 (stereo partly drawn)
→ x, x, -2%, -20%[46.1 µM], u, -3%, 3%, 1%
5	CNc1ccncc1S(=O)(=O)NC
→ 7%, 1.7%, -4%, u, -3%, -5%, 8%, 2%
6	O=C(Nc1cccc2ncccc12)c1ccc2c(c1)OCCO2
→ -17%, 4.1%, 2%, 3%, 12%, -7%, 0%, 8%
7	CC1CCCC/C1=N\NC(=S)Nc1ccccc1 (stereo not drawn)
→ x, x, 0%, x, x, 25%, 2%, -5%
8	Cc1ccc(OCC(O)Cn2c3ccccc3c3ccccc32)cc1 (stereo not drawn)
→ -8%, -3.7%, -67%, -55%, u, x, -39%, u
9	COc1ccccc1C(=O)N1CCNC(=O)C1CC(=O)Nc1ccc(Cl)cc1 (stereo not drawn)
→ 4%, 3.8%, -8%, u, u, -18%, 5%, -11%
10	O=C(COC(=O)c1ccc(-n2cnnn2)cc1)c1ccc(Br)cc1
→ x, x, x, 20%, 29%, 31%[activator], -6%, 11%
11	O=C(Nc1ccc(O)cc1C(=O)O)c1ccc2c(c1)C(=O)N(Cc1ccco1)C2=O
→ -18%, -18%, 15%, 1%, 8%, -10%, 1%, 4%
12	COc1ccccc1C1NC(=O)CCC1[N+](=O)[O-] (stereo not drawn)
→ x, x, 2%, 2%, 10%, -5%, 1%, -8%
13	Cc1ccc(CSc2ncc(Cl)c(C(=O)Oc3ccc(F)cc3)n2)cc1
→ -4%, -1.0%, x, u, 26%[46.1 µM], 3%, x, x
14	CC(C)CC(=O)Nc1cccc(NC(=O)c2ccccc2Cl)c1
→ 0%, 1.0%, 2%, 5%, 2%, -1%, -1%, -12%
15	COCCn1cnc2c1c(=O)n(CC(=O)NN)c(=O)n2Cc1ccccc1
→ x, x, 3%, x, x, -9%, 9%, -8%
16	COC(=O)c1cc(NC(=O)c2ccc(-c3ccc(Cl)cc3Cl)o2)cc(C(=O)OC)c1
→ -3%, -4.9%, x, x, -9%[46.1 µM], -22%, x, x
17	Cc1cccc(N(C(=O)CNC(=O)c2ccco2)C(C(=O)NC2CCCC2)c2ccncc2)c1 (stereo not drawn)
→ -2%, -1.3%, -12%, -13%, 11%, -6%, 2%, -13%
18	O=C(CCc1ccccc1)N1CCN(c2ccccc2F)CC1
→ x, x, -4%, -21%[46.1 µM], 2%[46.1 µM], -25%, 0%, -3%
19	O=C(COc1ccccc1)Nc1ccc(S(=O)(=O)Nc2ccccn2)cc1
→ x, x, -10%, -14%[46.1 µM], 0%[46.1 µM], 32%[activator], 3%, -5%
20	CC1(C)CC(=O)C(C=NCCN2CCN(C(=O)Cc3ccc(Cl)cc3)CC2)=C(O)C1
→ 29%, -0.6%, -6%, 0%, -5%, 4%, 6%, 13%
21	COc1ccc(NC(=O)Cn2nnc(C(=O)NCc3ccc(C)cc3)c2N)cc1OC
→ x, x, -19%, x, x, 3%, u, -3%
22	CN1CCC(N(C)C(=O)CNC(=O)c2ccc(C(C)(C)C)cc2)CC1
→ x, x, x, -5%[46.1 µM], x, 23%, 0%, -23%
23	Cc1nn(C(C)C(=O)NCCc2cccs2)c(=O)c2nn(-c3ccccc3)c(C)c12 (stereo not drawn)
→ x, x, -10%, x, x, -23%, -3%, 2%
24	N=c1n(Cc2ccc(Cl)cc2)c2ccccc2n1CC(O)c1ccco1 (stereo not drawn)
→ 2%, 0.8%, 1%, u, u, u, 3%, -12%
25	O=C(CSc1cccc2cccc(Cl)c12)NC1=NCCS1
→ x, x, -5%, 1%[46.1 µM], -11%, -13%, -16%, -1%
26	CCOc1cc(C(=O)N(Cc2nc(-c3ccc(C)cc3)no2)C(C)C)cc(OCC)c1OCC
→ u, -7.8%, x, -6%[46.1 µM], 24%[46.1 µM], u, x, x
27	Cc1nc(N2CCOCC2)c2c(C(=O)N3CCN(c4ccccc4)CC3)c(C)oc2n1
→ 1%, 0.7%, x, x, 14%[46.1 µM], 5%, x, x
28	COc1ccc(C(C(=O)NC2CCCCC2)N(C(=O)Cc2c[nH]c3ccccc23)c2ccccc2)cc1OC (stereo not drawn)
→ 6%, -8.4%, 11µM*, u, u, 2%, 3%, x
29	CCOc1cc(Cl)c(CNCCCN2CCOCC2)cc1OC
→ x, x, -10%, -21%, u, -3%, -6%, -15%
30	COc1ccc(CCNC(=O)Cc2cc(OC)c(OC)cc2[N+](=O)[O-])cc1OC
→ 9%, -0.5%, -4%, -2%[46.1 µM], 15%, -2%, 3%, -4%
31	O=C(NC1CCCc2c1cnn2-c1cc(F)cc(F)c1)c1cc[n+]([O-])cc1 (stereo not drawn)
→ x, x, -1%, 16%[46.1 µM], 14%[46.1 µM], 11%, 20%, 1%
32	Oc1ccc(CN2CCC(Cc3ccccc3)CC2)c2cccnc12
→ x, x, x, u, 2.8µM*, u, 2.5µM*, -11%
33	CSc1ccccc1C(=O)NCCSC(C)(C)C
→ 9%, 1.3%, 3%, 0%, -1%, -15%, 3%, 2%
34	Cc1ccc(S(=O)(=O)N2CCN(S(=O)(=O)c3ccc(C)cc3)C2c2ccccc2)cc1
→ -9%, 1.9%, u, u, -16%, -19%, -5%, -2%
35	CC(C)=C1CCC(C)CC1=NNC(N)=S (stereo not drawn)
→ x, x, x, -13%, u, u, x, -3%
36	CCc1ccc(S(=O)(=O)NCc2ccc3c(c2)CCN3C(=O)c2ccc(C)cc2)cc1
→ u, -2.7%, x, x, u, u, x, x
37	Cc1c(Cl)cccc1NC(=O)Nc1ccn(C)n1
→ 6%, -1.2%, -8%, u, u, 14%, -1%, -9%
38	O=c1oc(-c2cccc([N+](=O)[O-])c2)nc2ccccc12
→ x, x, -15%, -5%, -20%, 36%[activator], 0%, u
39	O=C(c1ccc2c(c1)N(Cc1cccc(Cl)c1)C(=O)c1ccccc1S2(=O)=O)N1CCN(Cc2ccccc2)CC1
→ 12%, -2.4%, x, x, u, -13%, x, x
40	CCOC(=O)C1CCCn2c1nc1sc3c(c1c2=O)CCCC3 (stereo not drawn)
→ -4%, 1.2%, -31%, 0%, -5%, -18%, 4%, -8%
41	CCn1cc(C(=O)NCC2CCCO2)c(=O)c2cc(S(=O)(=O)N(C)C3CCCCC3)ccc21 (stereo not drawn)
→ 9%, -1.6%, -1%, 0%&0%, -10%, 12%, -11%, -3%
42	O=C(CCOc1ccccc1)Nc1ccccc1[N+](=O)[O-]
→ x, x, x, 4%, 1%, 51%[activator], -4%, -1%
43	COc1ccccc1-n1cnnc1SCC(=O)c1ccc[nH]1
→ -10%, 5.0%, -2%, 21%, u, 6%, -4%, 3%
44	Cc1ccc(CNC(=O)c2cc3c(s2)-c2ccccc2SC3)cc1
→ u, -9.2%, x, -9%[46.1 µM], x, -8%, x, x
45	Cc1nn(-c2ccc(F)cc2)c(Cl)c1/C=C(\CCC(=O)O)c1nc2ccccc2s1
→ u, -30%, -9%, u, -2%, 14%, -7%, -15%
46	CN(CC(=O)Nc1ccccc1Cl)C(=O)COC(=O)c1ccc([N+](=O)[O-])cc1Cl
→ x, x, x, 9%, -3%[46.1 µM], 1%, -2%, 3%
47	CCOC(=O)c1sc(NC(=O)CCN2CCN(CC)CC2)c(C(=O)OCC)c1C
→ x, x, x, u, 18%, -6%, -11%, -20%
48	Cn1cccc1/C=C1/SC(=S)N(CC(=O)O)C1=O
→ x, x, 11%, x, x, u, 1%, 14%
49	CN(C)S(=O)(=O)c1ccc(S(=O)(=O)NCc2cccs2)cc1
→ x, x, -5%, -3%[46.1 µM], -18%[46.1 µM], 38%[activator], 3%, 12%
50	C/C(CC(=O)NCc1ccco1)=N\NC(=O)Cc1ccc(Cl)cc1
→ 5%, 4.9%, -8%, 6%, 19%, -6%, -1%, 5%
51	COc1cc(C(=O)NCC(=O)NCCN2C(=O)S/C(=C\c3ccccc3Cl)C2=O)cc(OC)c1OC
→ x, x, x, u, 1%, -8%, -1%, -9%
52	COc1ccc(C(CC(=O)O)NS(=O)(=O)c2ccc3c(c2)N(C(C)=O)CC(C)O3)cc1 (stereo not drawn)
→ x, x, 0%, x, x, -14%, 7%, 6%
53	COc1ccc(C2=NC(CO)(CO)CO2)cc1
→ x, x, 4%, 1%[46.1 µM], -5%[46.1 µM], -13%, 1%, 9%
54	CCS(=O)(=O)N1N=C(c2ccc(NS(C)(=O)=O)cc2)CC1c1ccccc1 (stereo not drawn)
→ 6%, -2.0%, -14%, 4%, 10%, 15%, 12%, -1%
55	COc1ccc(OCc2cc(C(=O)N(C)C3CCOC3)no2)c(Cl)c1 (stereo not drawn)
→ x, x, -18%, u, 4%[46.1 µM], 5%, -4%, 10%
56	CCOC(=O)c1ccccc1NC(=O)COC(=O)C1=COCCO1
→ 11%, 0.4%, -10%, 0%, 3%, u, -4%, -3%
57	Nc1c(C(=O)N2CCOCC2)sc2nc(N3CCOCC3)c3c(c12)CCCC3
→ x, x, 8%, x, x, 13%, 1%, 10%
58	COc1cccc(Nc2cc(C)c3ccccc3n2)c1
→ x, x, -11%, u, u, 33%[activator], 1%, -1%
59	CC(C)c1cc(=O)n2[nH]c(N)nc2n1
→ x, x, x, 4%, 13%, -12%, 0%, -6%
60	C=CC[n+]1c(-c2ccc(Cl)cc2Cl)csc1Nc1ccc(NC(C)=O)cc1
→ x, x, -5%, 3.2µM*, 2.8µM*, -29%, -27%, 13%

Bioassay records (PubChem)
